# Vaccinia mCherry = inhibitors of vaccinia virus infection (mCherry reporter signal). Vaccinia virus mCherry reporter infection, fluorescence; about a quarter of the inactives have no number. Potency, µM (highest dose often 36.5 µM), for the others: top-dose activity change, negative = inhibition, most hits filed as inhibitors. actives 0.63% (n = 310,000); active = well fitted inhibition curve with a large enough effect; inconclusive = small, poorly fitted or top-dose-only effect; inactive = no such curve, though single readings can be large or run the other way; tested in A549 cells; also: nearly all actives have a fitted effect of over 35% in size; inactives centre near -10
# Vaccinia Venus = inhibitors of vaccinia virus (Venus reporter). Potency, µM (series often up to 36.5 µM), without a hit: at the highest dose activity change, negative = inhibition, hits mostly inhibitors. Vaccinia virus Venus reporter expression, fluorescence. actives 0.46% (n = 330,000). AID 720580; active means well fitted inhibition curve with a large enough effect; inconclusive means small, poorly fitted or top-dose-only effect; inactive means no such curve, though single readings can be large or run the other way; tested in A549 cells; also: nearly all actives have a fitted effect of over 30% in size; inactives centre near -10
# An asterisk follows results filed as active; i = inactive; ? = inconclusive; . = no result given; & = joins results of further samples; [ ] = another dose, or the depositor's remark. % is scaled to controls: 0 for no effect and ±100 for the full control effect; potency is read from the fitted curve at half-maximal effect.
(1) CC(c1ccccc1)C1CC(=O)N(c2ccccc2)C1=O (configuration not stated)
(2) CC(C)NC(=O)c1cc(C2CCCCN2C(=O)c2ccc(C(C)C)cc2)on1 (configuration not stated)
(3) CN(C)CCOc1ccc2ccccc2c1
(4) COc1ccc(C(=O)OCC(=O)N2CC(=O)Nc3ccccc32)cc1Br
(5) CCOC(=O)/C(C#N)=C/c1ccc(OCC(=O)Nc2cc(C)ccc2C)c(OC)c1
(6) COC(=O)Cn1c(=NC(=O)c2cc(-c3cccs3)nc3ccccc23)sc2cc(S(N)(=O)=O)ccc21
(7) O=C(CN1C(=O)CCc2cc(Br)ccc21)Nc1ccc(OC(F)(F)F)cc1
(8) COc1ccc2c(c1)C(C)=CC(C)(C)N2C(=O)CNCc1ccc2c(c1)OCO2
(9) O=C(Cn1nc(C(=O)O)c2ccccc2c1=O)NC12CC3CC(CC(C3)C1)C2
(10) N#Cc1nc(-c2ccc(OCc3ccccc3)cc2)oc1NCc1ccco1

Screen / compound no.,1,2,3,4,5,6,7,8,9,10
Vaccinia mCherry,i,i,i,-16%,-4%,?,1%,i,0%,.
Vaccinia Venus,-11%,-23%,2%,-7%,-11%,?,-4%,-3%,-3%,-4%

# Compound profiles, as listed above. Screens in order: Vaccinia mCherry, Vaccinia Venus
# O=C(CN1C(=O)CCc2cc(Br)ccc21)Nc1ccc(OC(F)(F)F)cc1 as listed: 1%, -4%
# N#Cc1nc(-c2ccc(OCc3ccccc3)cc2)oc1NCc1ccco1 as listed: ., -4%
# COc1ccc(C(=O)OCC(=O)N2CC(=O)Nc3ccccc32)cc1Br as listed: -16%, -7%
# COc1ccc2c(c1)C(C)=CC(C)(C)N2C(=O)CNCc1ccc2c(c1)OCO2 as listed: i, -3%
# CCOC(=O)/C(C#N)=C/c1ccc(OCC(=O)Nc2cc(C)ccc2C)c(OC)c1 as listed: -4%, -11%

# (listing goes on)
(11) CC(=O)Nc1c(C#N)c(-c2ccccc2)c(C#N)c(=O)n1-c1ccc(C)cc1
(12) COCc1[nH]nc2c1C(c1ccccc1Cl)C(C#N)=C(N)O2 (configuration not stated)
(13) Cc1cc(-c2ccccc2)n2nc(-c3ccc(Cl)cc3)cc2n1
(14) Cc1ccc2c(c1)Oc1ccc([N+](=O)[O-])cc1C(=O)N2
(15) COc1ccccc1CNC(=O)Nc1cccs1
(16) COc1cc2c(=O)n(Cc3ccco3)c(=O)n(CC(=O)Nc3ccc(F)cc3)c2cc1OC
(17) CCCc1c(O)nc(SCC(=O)NCc2ccco2)[nH]c1=O
(18) O=C(CSc1ccccc1)NCC1(N2CCOCC2)CCCCC1
(19) Cc1ncc2c(c1CNC(=O)c1ccc3c(c1)OCO3)CCN(C(=O)c1scc3c1CCCC3)C2
(20) COc1ccc(CCNC(=O)c2ccc3c(c2)CCN3S(C)(=O)=O)cc1

Screen / compound no.,11,12,13,14,15,16,17,18,19,20
Vaccinia mCherry,i,-4%,-3%,-10%,.,-18%,i,-18%,-10%,-5%
Vaccinia Venus,-8%,-8%,-9%,-5%,11%,-9%,-3%,-4%,9%,5%

(21) CC1(C(=O)NCc2ccc3c(c2)OCO3)CCN1Cc1csc2ccccc12 (configuration not stated)
(22) O=C(CSc1ncn[nH]1)N1CCCCC1
(23) Cc1nn(-c2ccccc2)c(C)c1/C=N/NC(=O)c1cc(-c2cccc3ccccc23)n[nH]1
(24) COCCN1CCN(C(=O)c2cc(COc3ccc(F)c(F)c3)on2)CC1
(25) O=C(N/N=C/c1ccccn1)c1cccc(S(=O)(=O)Nc2ccccc2Cl)c1
(26) CC(C)c1ccc(/C=C/C(=O)N2CCc3ccccc3C2)cc1
(27) COCCOC(=O)C1=C(C)NC(=O)NC1c1c(Cl)nc2ccccn2c1=O (configuration not stated)
(28) COc1cccc(NC(=O)Nc2ccc3nc(N4CCN(C)CC4)cc(C)c3c2)c1
(29) CCc1n(CC(O)COCC2CC=CCC2)c2ccccc2[n+]1C (configuration not stated)
(30) COc1ccc2nc(SCC(=O)NC(C)C)[nH]c2c1

Screen / compound no.,21,22,23,24,25,26,27,28,29,30
Vaccinia mCherry,?,-1%,i,i,-25%,-8%,-9%,?,i,-2%
Vaccinia Venus,7%,2%,?,-14%,-11%,-10%,-7%,-21%,-11%,-4%

(31) CC(C)COc1cccc(-c2cc(C(=O)Nc3ccon3)c3ccccc3n2)c1
(32) Cc1cc(=O)oc2cc(O)cc(OCc3ccccc3)c12
(33) COc1ccc(N/C(=N/c2nc(C)cc(C)n2)NC(=O)c2ccccc2)cc1
(34) CCCCN(C)CCCNC(=O)c1cn(CC)c2ccc(S(=O)(=O)N3CCc4ccccc4C3)cc2c1=O
(35) O=c1[nH]c2c(c(=O)n1C1CCCCC1)CCC2
(36) CCOC(=O)Cn1nnnc1C
(37) CC(=O)C1=C(C)NC(SCC(=O)Nc2nccs2)=C(C#N)C1c1ccccc1Cl (configuration not stated)
(38) CC(C)CCCN1C(Nc2ccccc2)=NC[C@@H]1Cc1ccccc1
(39) CCOc1ccc(S(=O)(=O)N(CC(=O)N/N=C/c2cccs2)c2ccc(C)cc2)cc1
(40) N=C(N)CCCOc1ccccc1-c1ccccc1

Screen / compound no.,31,32,33,34,35,36,37,38,39,40
Vaccinia mCherry,-19%,-8%,4%,-10%&-23%,i,i,-13%,-17%,-21%,-3%
Vaccinia Venus,-17%,-29%,2%,-11%&-14%,-16%,4%,-10%,-12%,-29%,-18%

(41) CN1CCN(C(c2cccs2)c2nnnn2Cc2ccc(F)cc2)CC1 (configuration not stated)
(42) CCOc1cccc(CN2CCCC(N3CCc4cc(OC)c(OC)cc4C3)C2)c1O (configuration not stated)
(43) COc1ccccc1/C=C/C(=O)OCC(=O)NC1CC1
(44) Oc1[nH]c2ccccc2c1N=Nc1ccc(C(F)(F)F)cn1
(45) Cc1[nH]c2ccccc2c1C(=O)COC(=O)c1c(-c2ccccc2)noc1C
(46) COCCCn1c(=S)[nH]c2c(sc3ccccc32)c1=O
(47) C=CCNC(=O)NC(=O)COC(=O)/C(C#N)=C/c1cc(C)n(CC(C)C)c1C
(48) COc1ccc(-c2cnc(C(N)=O)c(=O)[nH]2)cc1
(49) COc1cc(OC)c(NC(=O)c2ccc3c(Cl)c4c(nc3c2)CCCC4)cc1Cl
(50) CN(Cc1cccs1)C(=O)c1ccc(Cl)c(S(=O)(=O)N2CCCCCC2)c1

Screen / compound no.,41,42,43,44,45,46,47,48,49,50
Vaccinia mCherry,-8%,?,i,.,-6%,17%,-14%,-26%,-2%,i
Vaccinia Venus,-8%,-19%,-2%,-6%,-11%,1%,-9%,-14%,-1%,-6%

(51) OC1/C(=C/c2ccccc2F)N2CCC1CC2 (configuration not stated)
(52) COC(=O)c1cc(S(=O)(=O)n2nc(C)cc2C)c(Cl)cc1Cl
(53) Cc1ccc(Nc2nc(-c3ccc(O)cc3O)cs2)nc1
(54) Cc1c(C(=O)c2ccc(Cl)cc2[N+](=O)[O-])c2ccccn2c1CCC#N
(55) O=P(O)(CP(=O)(c1ccccc1)c1ccccc1)c1ccccc1
(56) Cc1cc(Cl)ccc1-c1nc(NC(C)C)nc2ccsc12
(57) CC(=O)Nc1cccc(-c2ccnc3c2CC(C)(C(=O)Nc2cccc(C(C)=O)c2)O3)c1 (configuration not stated)
(58) NC(Cc1cc(O)c(O)cc1O)C(=O)O (configuration not stated)
(59) COc1ccc(F)cc1CN1CCN(c2ncnc3scc(-c4ccccc4)c23)CC1
(60) CCC(=O)Nc1cc2nn(-c3ccc(C)cc3)nc2cc1C

Screen / compound no.,51,52,53,54,55,56,57,58,59,60
Vaccinia mCherry,i,.,-30%,-16%,.,-13%,-2%,-6%,-13%,1%
Vaccinia Venus,-9%,0%,-15%,-21%,-4%,-5%,-14%,-11%,-7%,-23%&-8%

(61) CCc1nn(CC(=O)N2CCN(c3ccc(OC)cc3)CC2)c(=O)c2cc3occc3n12
(62) CCCCN(C)CCCNC(=O)c1cc(-c2ccc(Br)s2)nc2ccccc12
(63) O=C(CN1CCN(S(=O)(=O)c2ccc(F)cc2)CC1)N1CCOCC1
(64) Cc1c(Cl)ccc2sc(NC(=O)C3CC3)nc12
(65) CCc1ccccc1NC(=O)Cn1nc(C(F)(F)F)c2c1CCCC2
(66) CC(NC(=O)Cc1ccccc1)c1nc2ccccc2[nH]1 (configuration not stated)
(67) CC[C@]12c3[nH]c4ccc(OC)cc4c3CCN1C(=O)C(CC(=O)NCCCn1ccnc1)C[C@@H]2C(=O)N1CCN(C(=O)C2CC2)CC1 (some centres not stated)
(68) CC(C)CNC(=O)/C=C/c1cccs1
(69) CC(=O)c1cccc(NC(=O)CCCN(C)S(=O)(=O)c2ccc(F)cc2)c1
(70) O=C(Nc1sc2c(c1C(=O)NCCCO)CCCC2)c1ccccc1

Screen / compound no.,61,62,63,64,65,66,67,68,69,70
Vaccinia mCherry,-8%,-15%[7.34 µM],-17%,i,0%,3%,i,6%,-15%,0%
Vaccinia Venus,-9%,-12%[7.34 µM],-11%,-19%,4%,-3%,3%,-3%,-6%,-21%

# 4 entries drawn at random from the list so far:
(65) CCc1ccccc1NC(=O)Cn1nc(C(F)(F)F)c2c1CCCC2
(69) CC(=O)c1cccc(NC(=O)CCCN(C)S(=O)(=O)c2ccc(F)cc2)c1
(62) CCCCN(C)CCCNC(=O)c1cc(-c2ccc(Br)s2)nc2ccccc12
(67) CC[C@]12c3[nH]c4ccc(OC)cc4c3CCN1C(=O)C(CC(=O)NCCCn1ccnc1)C[C@@H]2C(=O)N1CCN(C(=O)C2CC2)CC1 (some centres not stated)

Screen / compound no.,65,69,62,67
Vaccinia mCherry,0%,-15%,-15%[7.34 µM],i
Vaccinia Venus,4%,-6%,-12%[7.34 µM],3%

# Entries above that contain a furan ring, fused or not, in the order listed:
(10) N#Cc1nc(-c2ccc(OCc3ccccc3)cc2)oc1NCc1ccco1
(16) COc1cc2c(=O)n(Cc3ccco3)c(=O)n(CC(=O)Nc3ccc(F)cc3)c2cc1OC
(17) CCCc1c(O)nc(SCC(=O)NCc2ccco2)[nH]c1=O
(61) CCc1nn(CC(=O)N2CCN(c3ccc(OC)cc3)CC2)c(=O)c2cc3occc3n12

Screen / compound no.,10,16,17,61
Vaccinia mCherry,.,-18%,i,-8%
Vaccinia Venus,-4%,-9%,-3%,-9%

# The results go on.
(71) O=C(OCc1ccc([N+](=O)[O-])cc1)C1CCN(S(=O)(=O)c2ccccc2)CC1
(72) O=C(c1ccc(Cl)cc1)n1nc(-c2cccnc2)nc1NCc1ccc(F)cc1
(73) Oc1c(Br)cc(Br)cc1C=NCc1ccc(F)cc1
(74) NC(=O)CC(NC(=O)Cc1ccc(Br)cc1)c1ccc(NC2CC3CCC2C3)c([N+](=O)[O-])c1 (configuration not stated)
(75) Cc1ccc(S(=O)(=O)N2CCCCC2)cc1NC(=O)c1ccc(=O)[nH]c1
(76) CN(C)c1ccc(-c2noc(C3CCN(S(=O)(=O)c4cccc(C(=O)O)c4)CC3)n2)cc1
(77) CCS(=O)(=O)c1ncc(N(Cc2ccccc2)Cc2ccco2)c(C(=O)Nc2cccc(Cl)c2C)n1
(78) CCN(CC(=O)Nc1cc(Cl)ccc1C)C(=O)COc1ccccc1F
(79) COC(=O)c1cc(Cl)ccc1NC(=O)Cn1c(C)cc(C)c(C#N)c1=O
(80) Cc1[nH]c2ccccc2c1SCCNC(=O)c1ccccc1F

Screen / compound no.,71,72,73,74,75,76,77,78,79,80
Vaccinia mCherry,-13%,-15%,-11%,-16%,-1%,i,-11%,i,-4%,-11%
Vaccinia Venus,-6%,-2%,-10%,?,-10%,-11%,-10%,-9%,-7%,-13%

(81) O=C1c2[nH]nc(-c3ccccc3O)c2C(c2ccc(Cl)cc2)N1Cc1ccco1 (configuration not stated)
(82) COc1cccc(-n2nnnc2SCC(=O)NCc2ccco2)c1
(83) CCn1c(CC(=O)Nc2ccccc2)nnc1SCC(=O)Nc1nnc(C)s1
(84) COc1cccc(N2C(=O)C3CCCN3C2c2ccc(F)cc2)c1 (configuration not stated)
(85) CCc1cc(CNC(=O)CC2C(=O)NCCN2CC2CCCCC2)on1 (configuration not stated)
(86) Cc1cc(C(=O)COC(=O)c2ccc(CO)cc2)c(C)n1CC1COc2ccccc2O1 (configuration not stated)
(87) O=C1NC(=O)C(=C2CCCCCC2)S1
(88) CCOc1ccc(Nc2nc3ccccc3c3nnc(CC)n23)cc1
(89) O=C(CSc1nc(=O)n(Cc2ccncc2)c2c1CCC2)Nc1ccccc1
(90) CCCCNc1cc(NC(C)=O)cc2cc(OC)c(OC)cc12
(91) COc1ccc(CN(C)C(=O)c2ccc(NS(=O)(=O)c3ccc(F)cc3)cc2)c(OC)c1

Screen / compound no.,81,82,83,84,85,86,87,88,89,90,91
Vaccinia mCherry,?,.,-9%,-18%,0%,-8%,-23%,-5%,i,i,i
Vaccinia Venus,?,-18%,-11%,-19%,-5%,-21%,-9%,-4%,-21%,5%,-16%
